Mtb H37Rv = Mycobacterium tuberculosis H37Rv growth inhibition, cell based, confirmatory dose response (AID 1949) | most inactive calls were filed without a number and no value below 0 was filed | inhibition, % at 10 µg/mL; hits with a dose series show IC50 in µg/mL | 1.6% of 100,000 active;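 active = confirmed in a dose series; inconclusive = about 50% or more but not retested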;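 note: bacteria grown 7 days with compound before Alamar blue readout; 0% = untreated bacteria and 100% = reference antibiotic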
* = called active by the depositor; i = inactive; ? = inconclusive.

SMILES | Mtb H37Rv
O=C(O)c1cc(NC(=O)C2CC=CCC2C(=O)O)ccc1Cl (stereo not drawn) | i
O=C(Cc1ccccc1[N+](=O)[O-])Nc1ccc(S(=O)(=O)N2CCCCC2)cc1 | i
Cc1cc(C)c2c(CC(=O)Nc3cc(C)on3)coc2c1 | 0.5%
CCCn1c(Cc2ccccc2)nnc1SCC(=O)Nc1ccc(Cl)c(C(F)(F)F)c1 | i
Cc1cc(Br)ccc1OCC(=O)N1C(C)CCCC1C (stereo not drawn) | i
N#Cc1ccc(C(=O)Nc2ccc(N3CCN(Cc4ccccc4F)CC3)cc2)c(F)c1 | i
O=C(Nc1ccc2c(c1)OCCO2)C1CCN(C(=O)c2ccc(-c3ccccc3)cc2)CC1 | 40.7%
COC(=O)c1cc(OC)c(OC)cc1NC(=O)c1cnccn1 | 1.1%
Cc1ccc(OCc2nnc(SCc3cccc(C#N)c3)n2N)cc1C | i
Cc1cc(C)nc(NC(=S)Nc2cccc(Cl)c2Cl)c1 | i
COc1ccc(Br)cc1S(=O)(=O)N(CC(=O)N1CCCC1)c1ccccc1 | i
COc1ccc(C(=O)n2nc(-c3ccccc3)nc2SC)cc1OC | i
O=S(=O)(Nc1ccccc1F)c1ccc(F)c(Cl)c1 | i
CC(C)c1ccccc1NS(=O)(=O)c1ccccc1[N+](=O)[O-] | i
Cc1ccc(F)c(NC(=O)CCCc2ccccc2)c1 | i

Looked up by structure from above (2):
SMILES | Mtb H37Rv
Cc1cc(Br)ccc1OCC(=O)N1C(C)CCCC1C (stereo not drawn) | i
COc1ccc(Br)cc1S(=O)(=O)N(CC(=O)N1CCCC1)c1ccccc1 | i

(further entries)
SMILES | Mtb H37Rv
Cc1cc(C)cc(C(=O)Nc2ccc3[nH]c(=O)[nH]c3c2)c1 | 0.2%
COc1ccc(NC(=O)c2ccc(N(Cc3ccccc3C)S(C)(=O)=O)cc2)cc1Cl | i
CCc1ccc(OCC(=O)NC(C)c2ccccc2)c(Br)c1 (stereo not drawn) | 19.2%
Cc1ccc(NC(=O)COc2ccc(Br)cc2CNCCN(C)C)cc1 | i
CC(=O)c1ccc(NC(=S)N2C(C)CCCC2C)cc1 (stereo not drawn) | 2.0%
COc1ccc(Cc2nnc(SCC(=O)Nc3cc(Cl)ccc3C)o2)cc1 | i
O=C(COc1ccccc1)NC(=S)Nc1ccc(N2CCN(c3c(F)c(F)c(F)c(F)c3F)CC2)cc1 | i
COc1ccc(NC(=O)CSc2c(C)n[nH]c2C)cc1 | i
CCC(C(=O)NCc1ccc(F)cc1)c1ccccc1 (stereo not drawn) | i
CCCCc1cc(=O)oc2cc(OS(=O)(=O)c3ccccc3)c(Cl)cc12 | 31.2%
COc1cccc(C(=O)NC(=S)Nc2ccc(Br)cc2C(=O)O)c1 | i
CCc1ccc(NC(=O)CSc2nnnn2-c2ccc(C(N)=O)cc2)cc1 | 2.1%
O=c1c2ccccc2ncn1CCCOc1ccc2ccccc2c1 | i
COC(=O)c1ccccc1NC(=O)Cn1cnc2cc(C)c(C)cc21 | i
Cc1ccc(C2=[N+]([O-])C(C)N(O)C2(C)C)o1 (stereo not drawn) | i
COc1cc(C(=O)NCc2ccco2)cc(OC)c1OC | i
Cc1ccc(S(=O)(=O)c2ccccc2C=O)cc1 | i
Cn1c(SCC(=O)Nc2nc3ccccc3s2)nnc1-c1cc2cc(Br)ccc2o1 | i
O=C(Oc1ccc(NS(=O)(=O)c2ccc(Cl)cc2)cc1)c1ccc(Cl)cc1 | i
Cc1cccc(C)c1OCC(=O)Nc1ccc(S(=O)(=O)NC2CCCCC2)cc1 | 12.2%
COC(=O)c1ccc(Cl)c(NS(C)(=O)=O)c1 | 1.4%
COC(=O)c1ccccc1NC(=O)C1CCN(C(=O)c2cccc(Cl)c2)CC1 | i
CCN(CC)c1ccc(NC(=O)c2cccc(Cl)c2)c(C)c1 | i
O=C(c1ccccc1N(Cc1ccccc1)S(=O)(=O)c1ccccc1)N1CCCCC1 | 0.1%
Cc1ccc(OCC(=O)N2CCN(C)CC2)c(C)c1 | i
CCOC(=O)c1ccc(NS(=O)(=O)c2cccc3ccccc23)cc1 | i
COc1ccc(Cl)cc1C(=O)O/N=C(\N)c1ccc(Cl)cc1 | 34.4%
COc1ccc(OCC(=O)Nc2ccc(N3CCN(C(=O)c4ccccc4C)CC3)cc2)cc1 | i
O=C(CN1CCN(c2ccc(Cl)cc2)CC1)Nc1ccc(F)cc1 | i
CC(=O)Nc1nnc(CC(C)(C)C)s1 | i

Next section; it opens with the 6 that closed the last part.
SMILES | Mtb H37Rv
Cc1ccc(OCC(=O)N2CCN(C)CC2)c(C)c1 | i
CCOC(=O)c1ccc(NS(=O)(=O)c2cccc3ccccc23)cc1 | i
COc1ccc(Cl)cc1C(=O)O/N=C(\N)c1ccc(Cl)cc1 | 34.4%
COc1ccc(OCC(=O)Nc2ccc(N3CCN(C(=O)c4ccccc4C)CC3)cc2)cc1 | i
O=C(CN1CCN(c2ccc(Cl)cc2)CC1)Nc1ccc(F)cc1 | i
CC(=O)Nc1nnc(CC(C)(C)C)s1 | i
CC1CN(C(=S)c2ccc(F)cc2)CC(C)O1 (stereo not drawn) | i
COc1ccc(NC(=O)CN(c2ccccc2Br)S(C)(=O)=O)cc1 | i
O=C(Nc1cccc2nsnc12)c1ccc(F)cc1F | i
COc1cc(CNc2ccc(C)c(Cl)c2)cc(Cl)c1OC | 30.6%
COC(=O)C1C(=O)NC(SCc2ccc(Cl)cc2Cl)=C(C#N)C1c1ccc(OC)cc1 (stereo not drawn) | i
CCC(Sc1nc(C)cc(C)n1)C(=O)Nc1nc2ccccc2s1 (stereo not drawn) | 27.1%
COC(=O)C1(C2c3ccccc3OC(=O)C2C(=O)Nc2ccccc2)CCCCC1 (stereo not drawn) | i
COc1ccc(C(CC(=O)Nc2cc([N+](=O)[O-])ccc2C)c2ccccc2)cc1 (stereo not drawn) | i
COc1cc(C(=O)Nc2ccc(F)cc2)cc(Br)c1OC | 2.8%
O=C1CC(N2CCN(c3ccccc3F)CC2)C(=O)N1c1ccc(Cl)c(Cl)c1 (stereo not drawn) | i
CC(=O)c1ccc(NC(=O)CSc2nccn2C)cc1 | i
O=C(Nc1nc(-c2ccc([N+](=O)[O-])cc2)cs1)c1ccc(S(=O)(=O)N2CCCCCC2)cc1 | 6.6%
CCOc1ccccc1C(=O)Nc1ccc(NC(=O)c2ccccc2OCC)cc1 | i
COc1cccc(C(=O)Nc2nnc(CCS(=O)(=O)c3ccc(C)cc3)s2)c1 | i
Cc1cc(NC(=O)NC(C(F)(F)F)C(F)(F)F)no1 | i

By substructure: the compounds so far with a COOH group
SMILES | Mtb H37Rv
O=C(O)c1cc(NC(=O)C2CC=CCC2C(=O)O)ccc1Cl (stereo not drawn) | i
COc1cccc(C(=O)NC(=S)Nc2ccc(Br)cc2C(=O)O)c1 | i

(list continues)
SMILES | Mtb H37Rv
COc1ccc(C2OC(=O)C3(CCCCC3)C(=O)C2(C)C)cc1OC (stereo not drawn) | i
COC(=O)Cc1ccc(NC(=S)NCc2ccc(F)cc2)cc1 | i
CC(SCc1ccccc1)C(=O)Nc1ccc(CC#N)cc1 (stereo not drawn) | i
CC(C)COc1ccc(CN2C(=O)c3ccccc3C2=O)cc1 | i
CSc1nc2ccc(S(=O)(=O)Nc3ccccc3C)cc2s1 | ?
CN(Cc1ccccc1)C(=O)CSc1ccc(Cl)cc1 | i
CCn1c(Cc2ccccc2)nnc1SCC(=O)Nc1cccc(C)c1C | i
Cc1cc(Cl)ccc1OC(C)C(=O)N1CCN(c2ccc(F)cc2)CC1 (stereo not drawn) | i
CCn1ccc(C(=O)Oc2ccc(C(C)C)cc2)n1 | 13.0%
Cc1ccccc1OC(C)c1nc(-c2cccnc2)no1 (stereo not drawn) | i
COc1ccc(-n2cc(C(=O)O)c3ccccc3c2=O)cc1 | 1.0%
COCCNc1ncnc2c1cnn2Cc1ccc(C)cc1 | 1.3%
O=C(Nc1sc2c(c1C(=O)NC1CCCCC1)CCC2)c1ccco1 | i
CC1=C(C(=O)Nc2ccccc2)C(c2ccc(OCc3ccccc3)cc2)NC(=O)N1 (stereo not drawn) | i
CC1(c2ccncc2)NC(=O)NC1=O (stereo not drawn) | i
CCOc1ccc(C(=O)NCCCc2ccccc2)cc1OCC | i
COc1ccc(CCNC(=O)CN(c2ccccc2OC)S(C)(=O)=O)cc1OC | 6.0%
O=C(CCc1ccccc1)NCC1OCCc2ccccc21 (stereo not drawn) | i
COc1ccc(N(C(C)C(=O)N(C)C)S(C)(=O)=O)cc1 (stereo not drawn) | i
NC(=O)c1cn(-c2ccccc2)nc1-c1cccnc1 | i
O=C1NC2CCCCC2NC1CC(=O)N1CCN(c2ccccc2)CC1 (stereo not drawn) | i
COc1cc(C)ccc1OCCOc1cccc2ccccc12 | 22.0%
Cc1cc(C)nc(NCCc2ccccc2)n1 | 1.0%
COc1ccc(NC(=S)NC2CCN(Cc3ccccc3)CC2)cc1OC | i
O=[N+]([O-])c1ccc(Cc2noc(COc3ccc(Cl)cc3)n2)cc1 | 2.2%
COc1ccc(-c2nnc3c4cnn(-c5cccc(C)c5)c4ncn23)cc1 | 1.1%
CCOc1ccccc1NC(=O)C1CCN(C(=O)c2ccc(C)cc2)CC1 | i
O=C(Nc1ccc(Cl)cc1)Nc1ccccc1NS(=O)(=O)c1cccs1 | i
CCOC(=O)c1sc(NC(=O)CSc2ncn[nH]2)c(C#N)c1C | i
COc1c(Cl)cc(C(=O)NC(=S)Nc2ccc(NC(=O)C(C)C)cc2)cc1Cl | i

6 of these compounds, reformatted.
SMILES	Mtb H37Rv
CCOc1ccccc1NC(=O)C1CCN(C(=O)c2ccc(C)cc2)CC1	i
NC(=O)c1cn(-c2ccccc2)nc1-c1cccnc1	i
Cc1cc(C)nc(NCCc2ccccc2)n1	1.0%
COc1cc(C)ccc1OCCOc1cccc2ccccc12	22.0%
CCOc1ccc(C(=O)NCCCc2ccccc2)cc1OCC	i
O=C1NC2CCCCC2NC1CC(=O)N1CCN(c2ccccc2)CC1 (stereo not drawn)	i

The results go on.
SMILES | Mtb H37Rv
Cc1cccc(N2CCN(C(=O)Nc3cccc(Cl)c3C)CC2)c1C | i
CN(C)c1ccc2sc(SCC(=O)NC(C)(C)C)nc2c1 | i
O=C(Cc1ccccc1F)N1CCN(c2ccccc2)CC1 | i
COc1cccc(NC(=O)c2cc([N+](=O)[O-])ccc2N2CCN(C)CC2)c1 | i
Cc1ccc(Oc2coc3cc(OCC(=O)Nc4ccccc4C(F)(F)F)ccc3c2=O)cc1 | i
Cc1nnc(SCc2ccc(C(=O)Nc3cc(Cl)ccc3C)cc2)s1 | ?
Cc1ccc(S(=O)(=O)N2CCCC(C(=O)N3CCCC3)C2)cc1 (stereo not drawn) | i
CCC(C)NCCCOc1ccc(Br)cc1C (stereo not drawn) | i
CCNc1cc(N2CCN(C(=O)c3ccc(Cl)cc3)CC2)ccc1[N+](=O)[O-] | 1.0%
O=C(CSc1ccccc1)Nc1cc(Cl)ccc1O | 37.5%
CC(=O)c1ccc(N2CCN(C(=O)c3cc(F)c(F)cc3Cl)C(C)C2)c(F)c1 (stereo not drawn) | i
O=C1CSC2(C(=O)Nc3ccccc32)N1c1ccc(Cl)c(C(F)(F)F)c1 (stereo not drawn) | i
Cc1cc(=O)[nH]c(SCC(=O)Nc2ccc(Cl)cn2)n1 | i
NC(=S)c1oc2nc(-c3ccncc3)ccc2c1N | i
CC(=O)Nc1ccc(S(=O)(=O)NCC2CCCO2)cc1 (stereo not drawn) | 0.4%
C=CCc1cccc(C)c1OCCNCCCC | i
CCOC(=O)c1c(-c2ccccc2)c2cc(OC)ccc2n1CCCN(C)C | 4.68µg/mL*
COc1cc(C2NC(=S)NC(C)=C2C(=O)Nc2cccc(C)c2)ccc1OC1CCCC1 (stereo not drawn) | i
N#C/C(=C/c1ccc(N2CCOCC2)cc1)c1ccc(C(F)(F)F)cc1 | i
COc1cc(-c2nc3ccc(C)cc3c(=O)o2)ccc1OC(C)=O | 3.4%
COc1ccc(C2NC(=S)NC(C)=C2C(=O)Nc2ccccc2F)cc1OC (stereo not drawn) | i
C=CCn1c(SCC(=O)Nc2cccc(Cl)c2Cl)nc2sc3c(c2c1=O)CCCC3 | i
CCOc1ccc2nc(SCC(=O)Nc3ccc(CC)cc3)[nH]c2c1 | 17.2%
CC(=O)OC1CCC2(C)C(=CCC3C4CCC(=O)C4(C)CCC32)C1 (stereo not drawn) | i
O=C(Nc1nc2ccccc2s1)c1ccc2ccccc2c1 | i
Cc1c(Cl)cccc1NC(=O)CCN1CCOCC1 | i
CC1=C(C(N)=O)C(c2cccc([N+](=O)[O-])c2)n2ncnc2N1 (stereo not drawn) | i
O=C1CCCN1C(=O)c1ccc(F)cc1 | i
CC(=O)c1ccc(NC(=O)CN2CCN(CC(=O)Nc3ccc(C(C)=O)cc3)CC2)cc1 | 1.2%
CC(C)(C)c1[nH]nc2c1C(c1ccc([N+](=O)[O-])cc1)C(C#N)=C(N)O2 (stereo not drawn) | i
CCC(=O)c1ccc(OCC(=O)Nc2ccc(C)c(Cl)c2)cc1 | ?
COc1ccc(CCNC(=S)NNC(=O)c2c[nH]c3ccccc23)cc1OC | i
O=C(CN(Cc1ccccc1Cl)S(=O)(=O)c1ccc(Cl)cc1)Nc1cccc([N+](=O)[O-])c1 | i
CN(CC(=O)O)S(=O)(=O)c1ccc2ccccc2c1 | i
Cc1cccc(N2C(=O)NC(=O)C(CCc3ccccn3)(Cc3ccc(C(C)C)cc3)C2=O)c1 (stereo not drawn) | i
Cc1ccc(C)c(N(CC(=O)N2CCc3ccccc3C2)S(C)(=O)=O)c1 | i
COc1ccc(N2C(=O)CC(NCCc3ccccc3OC)C2=O)cc1 (stereo not drawn) | i
CCOc1ccccc1NC(=S)N(C)C | i
C=CCc1ccccc1OCC(O)CN (stereo not drawn) | i
COC(=O)C1=CNC=C(C(=O)OC)C1c1cc(C)ccc1C | i
CNS(=O)(=O)Cc1ccc(Cl)cc1 | i
CC(=O)Nc1ccccc1C(=O)N1CCN(c2ccc(F)cc2)CC1 | i
Cc1ccc2nsnc2c1NC(=O)c1cc(I)ccc1Cl | i
CCCc1cc2c(-c3ccccc3)cc(=O)oc2cc1OCc1ccc(C(=O)O)o1 | i

Assay outcomes (PubChem BioAssay)

Some of the compounds tested; rates above refer to the full screens.
